# Rce1 inhib: yeast Ras-converting enzyme inhibition; hit rate 0.27% among 290,000; calls only; yeast membranes, quenched prenylated peptide cleavage fluorescence; AID 2563;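 active means fall in fluorescence gain of 50% or more versus controls, with final raw signal at or below 3038400; inconclusive means same 50% fall but final raw signal above 3038400; inactive means fall in fluorescence gain under 50%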;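 further: plate controls were neutral control wells for no effect and wells lacking membranes for full effect; tested at 10 µM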
# CSC inhib: blocks cancer stem cells; hit rate 1.1% among 300,000; cancer stem cell-like cells viability, luminescence; inhibition, % at 7.5 µM; AID 2717;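 active means mean at 75% or more and at least half the replicates too; inconclusive means mean and replicates disagree; tested in HMLE shEcad cells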;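 further: 0% = median of negative and 100% = median of positive control wells; the first replicate is given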
# HIV Env fusion: inhibitors of HIV Env-mediated cell fusion; HeLa-JRFL Env/CEM21 cell fusion, luciferase; inhibition, % at 12.3 µM; hit rate 1.1% among 360,000; AID 651610;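 active means mean replicate inhibition score of at least 50 and every replicate individually at or above 50; inconclusive means only one of the two criteria met; inactive means mean below 50 and not all replicates reaching 50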;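 further: 0% = plate neutral controls and 100% = maraviroc near 300 nM; one replicate is shown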
# MT1-MMP act inh: MT1-MMP (human) activation inhibition; hit rate 0.061% among 360,000; GFP/RFP ratio change, % at 20 µM; P50281; HT1080 RFP-PRO-GFP cells, GFP/RFP ratio fluorescence, overnight; percent of plate control window, DMSO zero; AID 651647;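 active means GFP/RFP ratio change of at least 30% with cell ATP level not reduced by more than half and red fluorescence within 50% of control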; further: strong numbers were not always called active
#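 Assay system – RFP-PRO-GFP reporter HT1080 cells · Compound dosing – single dose of 20 µM compound, 1% DMSO final · Incubation – overnight compound exposure at 37 °C · Measure – GFP/RFP fluorescence ratio · Benchmarks – DMSO wells and RFP-L50D-GFP cells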
# eIF4H inh: inhibitors of RNA binding by human eIF4H; Q15056; hit rate 0.94% among 290,000; inhibition, % at 35 µM; eIF4H fluorescence polarization binding assay; AID 2012;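 active means 50% or more with normal probe brightness, or confirmed in later tests; inconclusive means above 50% with abnormal brightness, or retests that disagree; inactive means below 50% or failed in later tests; about a fifth of its hits are not listed in these tables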;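 further: calls also rest on retests at 20 µM and on dose response follow-up; 0% = protein and probe with vehicle and 100% = probe without protein; strong numbers were not always called active; many hits fall short of the cut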
# UUG fidelity: modulators of start codon recognition fidelity in yeast; S. cerevisiae UUG-firefly luciferase reporter, luminescence/redox ratio; activity score, % at 18.7 µM; hit rate 0.13% among 350,000;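 active means replicate mean at a twofold rise or more, about +100% in these data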;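 further: firefly luciferase made from a UUG start codon reports start codon fidelity; reporter light over untreated wells divided by growth signal over untreated wells; some hits fall short of that in this replicate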
# PABP polyA inh: PABP-poly(A) binding inhibition; PABP-poly(A) RNA binding, fluorescence polarization; inhibition, % at 35 µM; hit rate 1% among 290,000;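 active means 50% or more with normal probe brightness, or confirmed in later tests; inconclusive means above 50% with abnormal brightness, or retests that disagree; inactive means below 50% or failed in later tests; about a fifth of its hits are not listed in these tables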;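 further: calls also rest on retests at 20 µM and on dose response follow-up; controls were probe without protein and protein plus probe with vehicle; some compounds called inactive have numbers as strong as hits; many hits fall short of the cut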
# Target sequence (P11940 whole entry, looked up): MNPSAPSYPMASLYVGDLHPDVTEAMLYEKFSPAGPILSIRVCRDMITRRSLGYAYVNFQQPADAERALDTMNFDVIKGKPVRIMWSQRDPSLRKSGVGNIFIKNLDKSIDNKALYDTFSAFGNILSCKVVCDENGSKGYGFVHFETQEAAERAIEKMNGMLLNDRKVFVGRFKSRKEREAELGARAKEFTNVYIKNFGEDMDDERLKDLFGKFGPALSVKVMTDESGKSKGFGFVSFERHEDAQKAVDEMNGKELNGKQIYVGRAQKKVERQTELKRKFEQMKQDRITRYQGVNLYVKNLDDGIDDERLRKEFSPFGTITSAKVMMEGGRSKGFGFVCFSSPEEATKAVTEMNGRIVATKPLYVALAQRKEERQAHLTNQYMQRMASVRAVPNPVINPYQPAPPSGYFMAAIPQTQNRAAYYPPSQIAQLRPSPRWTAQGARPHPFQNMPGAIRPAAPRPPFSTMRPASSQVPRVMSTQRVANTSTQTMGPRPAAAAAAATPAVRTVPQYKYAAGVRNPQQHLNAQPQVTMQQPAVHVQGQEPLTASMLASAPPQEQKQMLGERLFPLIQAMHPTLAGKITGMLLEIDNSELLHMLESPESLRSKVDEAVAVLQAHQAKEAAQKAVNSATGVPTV
# MT1-MMP act inh RFP: second read-out of MT1-MMP act inh, no call of its own (marks repeat the call); RFP signal change, %; measured here: RFP expression control read;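 0 = vehicle wells; hits needed this value within 50% of zero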
# Active calls of the source: *; i = inactive; ? = inconclusive; . = not tested or not shown.
SMILES,Rce1 inhib,CSC inhib,HIV Env fusion,MT1-MMP act inh,MT1-MMP act inh RFP,eIF4H inh,UUG fidelity,PABP polyA inh
CC(=O)NC1=NN(C(C)=O)C(C)(c2ccc(C)o2)S1 (configuration not stated),i,0,-2,1,4,-3,.,-5
COc1ccc(CSCC(=O)N/N=C/c2ccc(OCC(=O)NCc3ccco3)cc2)cc1,i,-8,.,1,-8,-1,9,-8
O=C(CN1C(=O)COc2ccc(S(=O)(=O)N3CCCC3)cc21)Nc1cccc(F)c1,i,-7,-14,-2,2,-6,0,-8
CC(O)Cc1cn([C@@H](CCCCN)C(=O)N2CCNCC2)nn1 (some centres not stated),i,-1,2,-2,1,0,-16,20
CCOc1ccc(-c2nc(-c3ccncc3)no2)cc1OCC,i,-5,-29,0,-4,-4,-13,10
Cc1cc(C(F)(F)F)nc(SCC(=O)Nc2nccs2)n1,i,-4,-4,-2,0,0,-11,-8
O=C(NCc1cccnc1)c1ccc([N+](=O)[O-])cc1,i,-21,2,4,4,1,-6,3
CNC(=O)Nc1ccccc1F,i,-10,-2,0,0,-1,-4,-6
Cc1ccc2c(c1)C(c1ccccc1)C(=O)O2 (configuration not stated),i,.,-12,6,-4,-1,-3,-4
CCC(CC)C1C(C#N)=C(N)Oc2n[nH]c(-c3ccccc3)c21 (configuration not stated),i,33,.,-6,-9,-16,-9,-3
CNc1cccc(-c2cccc(C(=O)N3CCOCC3)c2)n1,.,.,-21,1,3,.,3,.
O=C(Nc1cc(Cl)cc(Cl)c1)C(c1ccccc1)N1CCCCC1 (configuration not stated),i,20,75*,-5,-1,-13,.,-11
COC(=O)c1c(NC(=O)C2CC(C)=C(C)CC2C(=O)O)sc2c1CCCCC2 (configuration not stated),i,7,-120,0,3,-3,-10,5
Cc1cc(S(=O)(=O)Nc2ccc3cn[nH]c3c2)c(C)cc1Cl,.,5,-9,0,-9,-7,-18,15
CC1(CCC(=O)N2CCCC(N3CCN(c4ccc(F)cc4)CC3)C2)CC1 (configuration not stated),i,20,6,-3,-6,-6,-6,-10
Cc1cccc(C(=O)NCC(=O)OCC(=O)c2ccc(C)s2)c1,.,-10,-1,2,5,.,-20,.
Cc1cccc(NC(=O)NNC(=O)CCc2ccccc2)c1,i,-23,-7,2,5,-1,1,-11
Cc1csc(SC(C)C(=O)NCC(=O)Nc2ccc(F)c(F)c2F)n1 (configuration not stated),i,-4,5,2,4,-8,.,-5
CCN(c1ccccc1)S(=O)(=O)c1ccc(OCc2c(C)noc2C)cc1,i,-5,-80,-3,-2,0,-8,1
Cc1ccc(OCC(O)CNC(C)c2ccccc2)cc1C (configuration not stated),i,14,60*,1,3,-18,-2,2
COc1ccccc1/C=C/CN1CCCC(CO)(Cc2cccc(Cl)c2)C1 (configuration not stated),i,55,5,-1,-2,0,-31,-4
Cc1ccc2sc(N(CCN(C)C)C(=O)c3ccc(S(=O)(=O)N4CC(C)OC(C)C4)cc3)nc2c1C (configuration not stated),i,3,8,2,0,-12,24,-13
Cc1ccc(-c2c(C)n([O-])c3c([n+]2=O)CCCCC3)o1,i,-28,2,-1,5,-8,-14,-4
COc1ccc(C(=O)NCC(=O)OCC(=O)c2cc(OC)c(OC)c(OC)c2)cc1OC,i,3,-17,2,0,-17,.,-5
CCC(C)NC(=O)C1CCN(S(=O)(=O)N2CCCC2)CC1 (configuration not stated),i,-15,.,0,0,-4,-14,-1
COc1ccccc1C(C)NCC(=O)Nc1c(F)cccc1F (configuration not stated),i,-16,-12,0,-3,3,.,-9
Cc1cc(C)n(CC(O)COc2ccc(C(C)C)c(C)c2)n1 (configuration not stated),i,-4,1,3,-1,2,0,3
CCOC(=O)c1c(CC(C)C)csc1NC=O,i,-8,.,6,-1,-3,15,-4
Cc1nnc2ccc(N3CCCCC3)nn12,i,0,10,-1,4,3,-10,-1
Cc1ccc(S(=O)(=O)N2CCOCC2)cc1NC(=O)CN1CCN(c2ccc(O)cc2)CC1,i,7,28,0,-2,32,-34,0
CC(=O)NC(=S)Nc1cc(C(=O)O)ccc1Cl,i,-7,7,0,5,-7,.,4
O=Cc1ccccc1-n1cncn1,i,13,?,-3,1,-5,-24,-8
COc1ccc(NC(=O)CN(C)C(=O)/C=C/c2cn(-c3ccccc3)nc2-c2ccc(F)cc2)cc1,i,8,-6,-8,-7,.,.,.
O=C(COc1ncnc2ccc(Br)cc12)NC1CCCC1,.,11,-138,0,3,.,-5,.
N#CCSCC(=O)Nc1ccccc1,.,-7,.,-1,1,0,-11,-7
COc1ccc(N2CCN(Cc3nc4cc(Cl)ccc4c(=O)[nH]3)CC2)cc1,i,1,3,0,6,7,.,4

# Nothing new here: an excerpt of the list.
SMILES,Rce1 inhib,CSC inhib,HIV Env fusion,MT1-MMP act inh,MT1-MMP act inh RFP,eIF4H inh,UUG fidelity,PABP polyA inh
Cc1csc(SC(C)C(=O)NCC(=O)Nc2ccc(F)c(F)c2F)n1 (configuration not stated),i,-4,5,2,4,-8,.,-5
CCN(c1ccccc1)S(=O)(=O)c1ccc(OCc2c(C)noc2C)cc1,i,-5,-80,-3,-2,0,-8,1
Cc1ccc(OCC(O)CNC(C)c2ccccc2)cc1C (configuration not stated),i,14,60*,1,3,-18,-2,2
COc1ccccc1/C=C/CN1CCCC(CO)(Cc2cccc(Cl)c2)C1 (configuration not stated),i,55,5,-1,-2,0,-31,-4
Cc1ccc2sc(N(CCN(C)C)C(=O)c3ccc(S(=O)(=O)N4CC(C)OC(C)C4)cc3)nc2c1C (configuration not stated),i,3,8,2,0,-12,24,-13
Cc1ccc(-c2c(C)n([O-])c3c([n+]2=O)CCCCC3)o1,i,-28,2,-1,5,-8,-14,-4
COc1ccc(C(=O)NCC(=O)OCC(=O)c2cc(OC)c(OC)c(OC)c2)cc1OC,i,3,-17,2,0,-17,.,-5
CCC(C)NC(=O)C1CCN(S(=O)(=O)N2CCCC2)CC1 (configuration not stated),i,-15,.,0,0,-4,-14,-1
COc1ccccc1C(C)NCC(=O)Nc1c(F)cccc1F (configuration not stated),i,-16,-12,0,-3,3,.,-9
Cc1cc(C)n(CC(O)COc2ccc(C(C)C)c(C)c2)n1 (configuration not stated),i,-4,1,3,-1,2,0,3
CCOC(=O)c1c(CC(C)C)csc1NC=O,i,-8,.,6,-1,-3,15,-4
Cc1nnc2ccc(N3CCCCC3)nn12,i,0,10,-1,4,3,-10,-1
Cc1ccc(S(=O)(=O)N2CCOCC2)cc1NC(=O)CN1CCN(c2ccc(O)cc2)CC1,i,7,28,0,-2,32,-34,0
CC(=O)NC(=S)Nc1cc(C(=O)O)ccc1Cl,i,-7,7,0,5,-7,.,4
O=Cc1ccccc1-n1cncn1,i,13,?,-3,1,-5,-24,-8
COc1ccc(NC(=O)CN(C)C(=O)/C=C/c2cn(-c3ccccc3)nc2-c2ccc(F)cc2)cc1,i,8,-6,-8,-7,.,.,.

# Following part.
SMILES,Rce1 inhib,CSC inhib,HIV Env fusion,MT1-MMP act inh,MT1-MMP act inh RFP,eIF4H inh,UUG fidelity,PABP polyA inh
COc1ccc(CSCCN)cc1Cl,i,4,-6,3,2,-11,-20,4
COc1ccc(/C(N)=N/OC(=O)CCC2CCCC2)cc1OC,i,6,-8,-3,-2,-8,-25,-12
COc1cccc(CN(C)C(=O)c2ccc(NC(=O)CC3SC(N4CCCCC4)=NC3=O)cc2)c1OC (configuration not stated),.,.,3,-4,-3,.,-1,.
CCN1CCN(C(=O)C2(NC(=O)Nc3ccccc3Cl)CCCCC2)CC1,i,-2,.,1,2,4,.,-4
Cc1c(OCc2nn[nH]n2)ccc2c3c(c(=O)oc12)CCC(C)C3 (configuration not stated),.,-2,-33,-2,3,6,-10,18
O=C1CCN(C(=O)c2ccccc2)c2ccccc21,.,.,-6,-2,1,.,2,.
COC(=O)c1cn(CCOc2ccc(C)cc2)c2ccccc12,i,6,25,11,2,-3,2,-17
Cc1ccc(NC(=O)CN(C)C(=O)c2ccc(OCc3c(C)noc3C)cc2)cc1,.,.,7,2,-5,.,-21,.
COc1ccc(-n2nc(C(=O)NCC(=O)N3CC(C)CC(C)C3)c3ccccc3c2=O)cc1 (configuration not stated),i,-48,19,3,2,-9,3,-15
O=C(NC1CCCC1)NS(=O)(=O)c1ccccc1Cl,i,-18,-71,0,2,2,-21,10
COc1ccc(-c2cc([N+](=O)[O-])ccc2OCC(=O)N(C)CC(=O)Nc2ccc(C)cc2)cc1,.,.,104*,-3,-12,.,-16,.
Cc1cccc(N(C(=O)c2nsc(Cl)c2Cl)C(C(=O)NC2CCCC2)c2ccc(O)cc2)c1C (configuration not stated),i,-3,.,-32,-33,-4,.,-10
COc1ccccc1OCC(=O)Nc1cccc(N(C)S(C)(=O)=O)c1,i,-6,12,-3,1,0,-8,2
Cn1cnc([N+](=O)[O-])c1Oc1cccc(O)c1,i,-2,-1,0,0,-2,.,-4
O=C1C=C(c2cc(F)ccc2F)C[C@@H](c2ccc(Cl)cc2)C1,.,49,-6,2,-1,.,-4,.
COc1ccc(OC)c(S(=O)(=O)N(C)CC(=O)N2CCN(c3ccccc3F)CC2)c1,i,1,.,3,1,-11,7,-8
Fc1cccc(Cc2noc(CN3CCC(c4ccncc4)CC3)n2)c1,i,50,15,-4,-18,0,.,-5
CCOC(=O)C(C(=O)OCC)N(C#N)c1nc(OC)nc(N(C)C)n1,i,-17,.,3,6,-17,.,-10
CC(=O)N1CCN(S(=O)(=O)c2cccc(C(=O)OCC(=O)NC(=O)c3cccn3C)c2)CC1,i,-5,-9,3,3,10,.,5
O=C(COc1ccc(Br)cc1)NNC(=S)NC(=O)c1ccccc1[N+](=O)[O-],i,9,.,6,7,8,-14,-15
C=CCNc1cc(C(F)(F)F)nc(-c2ccccn2)n1,i,-14,-138,0,5,-2,-24,6
CSCCC(NC(=O)c1cccc(S(=O)(=O)N2CCN(C(C)=O)CC2)c1)c1nc2ccccc2[nH]1 (configuration not stated),.,.,-4,-4,1,.,-21,.
COc1ccc(C(=O)CSC2=C(C#N)C3(CCCCC3)C(C#N)=C(N)N2)cc1,i,-3,76*,-1,-2,-2,-13,5
COc1ccc(CCNC(=O)CCCCCN2C(=O)c3ccccc3C2=O)cc1,i,.,.,3,2,1,24,5
Cc1[nH]c2ccccc2c1C(=O)COC(=O)C1CC(=O)N(Cc2ccco2)C1 (configuration not stated),i,-27,-5,-3,2,1,.,8
COc1cc(-c2nnc(SCC(=O)N(Cc3ccccc3)C(C)(C)C)o2)cc(OC)c1OC,i,71,.,-1,-10,-13,.,-1
CCOc1ccccc1NC(=O)CN1CCC(C(=O)c2ccc(OC)cc2)CC1,i,-10,20,5,1,-7,-9,-5
COC(=O)c1cc(-c2cccs2)nc2ccccc12,i,-1,.,2,4,6,-16,1
Cc1ccnc(NC(=O)C2CCN(S(=O)(=O)c3cccc(C(F)(F)F)c3)CC2)c1,i,6,-30,-3,-7,-11,-4,-2
Cc1ccc(NC(=O)COC(=O)c2ccc(OCc3c(C)noc3C)cc2)cc1S(=O)(=O)N1CCOCC1,i,6,14,-3,1,-1,-8,-3
CCCNC(=O)CN(CCc1ccccc1)S(C)(=O)=O,i,-16,16,-1,5,-6,-13,2

# Assay outcomes deposited in PubChem BioAssay by several laboratories.

# This is a subset; rates above refer to the full screens.
